# Measles inh: inhibitors of measles virus growth in infected cells | infected Vero cells, GFP fluorescence, 64 h; stronger effect = lower value | z-score (test concentration not listed) | 33,000 compounds, 0.1% hits | AID 745;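 active = z-score under -3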;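 note: score is relative to mean and SD of the compound wells of a plate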
# The depositor's hits bear a star. These rows are one share of the data (hit frequency here may not be typical).
nr	Molecule	Measles inh
1	O=C(O)C1C2C=CC(O2)C1C(=O)Nc1ccccc1C(F)(F)F (configuration not stated)	-0.59
2	CCN(CC)C(=O)c1sc2c(c1C)c(=O)n(CCc1ccccc1)c(=O)n2Cc1cc(=O)n2ccccc2n1	-0.63
3	Cc1nn(-c2ccccc2)c(OC(=O)c2ccccc2)c1S(=O)(=O)c1ccccc1	0.66
4	Cc1cccc(-n2cc(-c3ccccc3)c3c(N4CCN(c5ccccc5)CC4)ncnc32)c1	1.61
5	Cc1ccc(-n2c(SCC(=O)NCc3ccc(F)cc3)nc3c(c2=O)SCC3)cc1	1.47
6	Cc1nn(C)c(C)c1S(=O)(=O)N1CCN(C(=O)c2ccco2)CC1	0.8
7	CC=CN1C(=S)NC2(O)c3ccccc3C(=O)C12O (configuration not stated)	-0.88
8	O=C(c1ccc(N2CCOCC2)c([N+](=O)[O-])c1)N1CCCCC1	1.68
9	O=c1n(-c2ccccc2)c(=O)n2n1C1c3ccccc3C2c2ccccc21	0.19
10	O=S(=O)(N=C(c1ccccc1)N1CCOCC1)c1ccccc1	-0.03
11	CCOC(=O)C1C(=O)C=C(c2ccc(OC)c(OC)c2)CC1c1ccccc1Cl (configuration not stated)	-1.23
12	N#CCCn1c2c(c3ccccc31)CCc1ccccc1-2	-0.09
13	Cc1ccc(-n2nc3c(c2NC(=O)C(C)(C)C)CS(=O)C3)cc1 (configuration not stated)	-0.88
14	CC1CCN(C(=O)c2cc(N3C(=O)C4C5CCC(C5)C4C3=O)ccc2Cl)CC1 (configuration not stated)	-0.63
15	Cc1c(CCO)c2ccccc2n1-c1ccccc1	-0.09
16	Cc1ccc(C)c(N2CN(Cc3ccco3)CNC2=S)c1	-1.19
17	CCOC(=O)c1c(NC(=O)c2ccc(-c3ccccc3)cc2)sc(C)c1C	1.26
18	CCc1nnc2c3c(-c4ccc(C)c(C)c4)csc3ncn12	-0.35
19	COc1ccc(CCNC(=O)C2CCN(c3nc4ccc(C)cc4[nH]3)CC2)cc1OC	-0.17
20	CCn1cc(SCC(=O)N2CCc3ccccc32)c2ccccc21	-0.03
21	Cc1ccc(N2C(=O)c3cc4cccc(Br)c4cc3C2=O)cc1	0.37
22	O=C(COc1nc2ccccc2s1)N1c2ccccc2CCc2ccccc21	1.03
23	Cc1ccc(-c2c(C(=O)Nc3cccc(-c4nc5ncccc5o4)c3C)oc(=O)c3ccccc23)cc1	0.67
24	Cc1oc(C(=O)Nc2ccccc2)cc1CSc1ccccc1C(=O)Nc1ccccc1	0.77
25	Cc1cc(OCC(=O)Nc2nccs2)ccc1C(C)C	-0.13
26	CC1CCN(C(=O)CSc2nc3c(sc4ccccc43)c(=O)n2CCCN2CCOCC2)CC1	0.57
27	O=C(CC1(O)C(=O)N(Cc2cccc3ccccc23)c2ccccc21)c1ccc(F)cc1 (configuration not stated)	0.59
28	COc1ccc(Cl)cc1N1C(=O)C2C(c3ccccc3)OC3(C(=O)c4ccccc4C3=O)C2C1=O (configuration not stated)	-0.43
29	Cc1c(Cl)cccc1NC(=O)CCCN1C(=O)c2cccnc2C1=O	-0.35
30	COc1ccc(Cn2c(SCC(N)=O)nc3c(sc4ccccc43)c2=O)cc1	-0.83

# In the list so far, 3 have a furan ring, fused or not:
nr	Molecule	Measles inh
6	Cc1nn(C)c(C)c1S(=O)(=O)N1CCN(C(=O)c2ccco2)CC1	0.8
16	Cc1ccc(C)c(N2CN(Cc3ccco3)CNC2=S)c1	-1.19
24	Cc1oc(C(=O)Nc2ccccc2)cc1CSc1ccccc1C(=O)Nc1ccccc1	0.77

# Next part:
nr	Molecule	Measles inh
31	CCc1ccc(N2C(=O)NC3c4ccccc4OC2(C)C3C)cc1 (configuration not stated)	-2.06
32	COc1cc(-c2cccs2)cc(=O)c2c(C)oc(C)c12	-0.84
33	O=c1[nH]c(CN2CCN(c3ccccc3)CC2)nc2ccccc12	-0.17
34	CC1CC(C)CN(S(=O)(=O)c2ccc(F)c(C(=O)Nc3ccccc3Cl)c2)C1 (configuration not stated)	0.63
35	O=[N+]([O-])c1ccc(S(=O)(=O)c2ccccc2[N+](=O)[O-])cc1	0.33
36	CCN(CC)CCn1c(NC(C)=O)nc2ccccc21	0.41
37	Cc1[nH]c2ccc(-c3nnc(SCC(=O)O)n3C)cc2c1C	0.54
38	Fc1ccc(C2=CC(c3ccccc3OC(F)F)n3ncnc3N2)cc1 (configuration not stated)	-0.21
39	Cc1ccc(NC(=O)c2ccccc2)s1	0.94
40	CCN(CC)c1ccc(C2C(C(=O)Nc3cc(C)ccn3)=C(C)NC3=C2C(=O)CC(C)(C)C3)cc1 (configuration not stated)	-0.91
41	CCCCCC(=O)Nc1cccc(-c2nc3cc(C)cc(C)c3o2)c1	0.84
42	COc1ccc(S(=O)(=O)c2cc(NC(=O)c3ccc(Cl)cc3)c(C)c(C)c2O)cc1	0.26
43	CC(C)c1ccc(NC(=O)c2ccc([N+](=O)[O-])cc2)cc1	0.76
44	CCOC(=O)c1c(-c2ccccc2)csc1NC(=O)c1ccc(I)cc1	0.91
45	CCc1ccc(-c2nc3ccccc3c(=O)o2)cc1	-0.57
46	Cc1ccc(CN2CC34C=CC(O3)C(C(=O)NCc3ccc5c(c3)OCO5)C4C2=O)cc1 (configuration not stated)	2.29
47	CCN(CC)c1ncnc2c1sc1nc(N3CCOCC3)c3c(c12)CCCC3	2.04
48	CCCCOC(=O)C1=C(C)Nc2nnnn2C1c1cccc(OC)c1 (configuration not stated)	-1.62
49	CCN(CC)c1ccc(O)c(C=Nc2ccc(S(N)(=O)=O)cc2)c1	1.43
50	CCOC(=O)c1cccc(NC2=NC3(CCCCC3)N=C(N)N2)c1	0.86
51	Oc1ccc(Cl)cc1C=Nc1ccc(Br)cc1	-0.34
52	CCC(=O)N1CCc2cc(S(=O)(=O)NCCN3CCCCC3C)ccc21 (configuration not stated)	0.36
53	CC(C)C1Cc2c(sc3nc(SCC(=O)O)n(-c4ccccc4)c(=O)c23)CO1 (configuration not stated)	0.27
54	O=C(CSc1nc2c(sc(=S)n2CCc2ccccc2)c(=O)n1Cc1ccco1)N1CCCC1	1.47
55	O=C(NCc1ccc(C(=O)NC2CCCCCC2)cc1)c1ccc(Br)cc1	-0.64
56	COc1nc(Cl)cc(C)c1C(=O)NCc1ccc(Cl)cc1	-0.85
57	COC(=O)C(NC(C)=O)(Nc1ccc(C)cn1)C(F)(F)F (configuration not stated)	0.04
58	CCSc1nc2c(c(=O)[nH]1)C1(CCCCC1)Cc1ccccc1-2	-0.65
59	Nc1ccc(C(=O)Nc2nc3ccc4ccccc4c3s2)cc1	-0.31
60	CC(C)(C)C1CCc2c(sc(N=Cc3cccnc3)c2C#N)C1 (configuration not stated)	-0.17
61	COc1ccccc1CNC(=O)C1c2cc(OC)c(OC)cc2C(=O)N(C)C1c1ccc(SC)cc1 (configuration not stated)	0.62
62	CCC(=O)N1CCc2cc(S(=O)(=O)Nc3cc(C)cc(C)c3)ccc21	-0.34
63	COc1ccc(C2C3C(=O)N(c4cccc(Cl)c4)C(=O)C3ON2c2ccccc2C)cc1 (configuration not stated)	-0.62
64	Cc1cc(C)n(C(=O)COc2ccc(Cl)cc2C)n1	0.51
65	COc1ccccc1-c1nc(SCC(=O)c2ccc(O)c(O)c2)n[nH]1	0.45
66	CCOC(=O)C1CCCN(C(=O)c2cc(Nc3cc(C)cc(C)c3)nc3ccccc23)C1 (configuration not stated)	-1.37
67	COc1cccc(NS(=O)(=O)c2ccc3[nH]cc(C(=O)NC4CC4)c(=O)c3c2)c1	-0.02
68	COc1ccccc1CNC(=O)CCSCc1cccc(Cl)c1	-0.74
69	O=S(=O)(c1cc(Br)c(Br)s1)N1CCN(Cc2ccccc2)CC1	1.65
70	CC(=O)OCc1cnc(C)c2oc(=Nc3cccc(Cl)c3)c(C(=O)Nc3ccccc3)cc12	-0.11
71	Cc1ccc(-c2cc(C(=O)NCc3ccco3)c3ccccc3n2)o1	-0.95
72	CCn1c(=NC(=O)c2ccc(S(=O)(=O)N(C)C)cc2)sc2cc(OC)ccc21	0.23
73	O=c1[nH]c2ccc(Cl)cc2c(-c2ccccc2)c1N1CCN(Cc2ccc3c(c2)OCO3)CC1	0.31
74	O=c1oc2ccc([N+](=O)[O-])cc2cc1-c1csc(Nc2ccccc2)n1	-0.61
75	Cc1ccc(Sc2nc3ccc(C)cn3c(=O)c2C=Nc2ccc(Cl)cc2)cc1	0.73
76	Cc1c(C(=O)OCCOC(C)C)[nH]c2c1C(=O)CC(c1ccc(F)cc1)C2 (configuration not stated)	-0.22
77	CCc1ccccc1-n1c(SCc2ccccc2F)nc2[nH]ncc2c1=O	-0.48
78	O=P(Nc1ccccc1)(c1ccccc1)c1ccccc1	1.84
79	Cc1cc(N)n(-c2ccccc2C)n1	-0.09
80	CCOC(=O)C1=CN(c2cc(C)cc(C)c2)C=C(C(=O)OCC)C1c1cccc(Cl)c1	-0.34
81	Cc1ccc(-n2c3c(cc(C(=O)N4CCN(C)CC4)c2=O)C(=O)CC(C)(C)C3)cc1	-0.39
82	CCOC(=O)C1=C(C)NC2=C(C(=O)C(C(=O)OCC)C(c3ccc(OC)cc3)C2)C1c1cccs1 (configuration not stated)	0.72
83	CC(C)C(NC(=O)c1ccc(F)cc1)C(=O)NC1=NCCS1 (configuration not stated)	-0.32
84	CCOC(=O)C1CCCN(C(=O)c2cc3c(=O)[nH]c4ccccc4c3s2)C1 (configuration not stated)	-0.44
85	O=C(Nc1nc2ccccc2s1)C1CC(=O)N(c2ccc(Br)cc2)C1 (configuration not stated)	1.19
86	CSc1nnc2c(n1)OC(c1ccccc1OCC(=O)O)Nc1ccc(Br)cc1-2 (configuration not stated)	0.49
87	CCCc1oc2c(cc(NS(=O)(=O)c3ccc(F)cc3)c3ccccc32)c1C(=O)OCC	1.93
88	CCc1ccc(NS(=O)(=O)c2ccc3[nH]cc(C(=O)NC4CCCCC4C)c(=O)c3c2)cc1 (configuration not stated)	-0.28
89	O=C(CN(Cc1ccccc1)S(=O)(=O)c1ccccc1)N1CCOCC1	-1.5
90	O=[N+]([O-])c1ccc(N2CCN(c3ccc([N+](=O)[O-])c4cccnc34)CC2)c(Cl)c1	-0.43

# Following part:
nr	Molecule	Measles inh
91	CCOc1ccc(NC(=O)c2cc3c(-c4cccc(OC)c4)nn(C)c3s2)cc1	-0.4
92	Cc1nc2nc(SCC(=O)NC3CCCCC3)nn2c(C)c1Cc1cccc(Cl)c1	-0.4
93	CCCNC(=O)c1cc(-c2ccc(OC)c(OC)c2)on1	-1.06
94	COc1ccc(NC(=O)CN2C(=O)C3C4CCC(C4)C3C2=O)cc1 (configuration not stated)	0.52
95	CCN(CC)S(=O)(=O)c1ccc(C(=O)Nc2nc3ccc4sc(C)nc4c3s2)cc1	-0.65
96	COc1ccc(C2CC(c3ccccc3)n3ncnc3N2)cc1 (configuration not stated)	-1.84
97	CCc1ccccc1Nc1nc(-c2cccnc2)cs1	-0.36
98	CCOc1ccc(N2CC(C(=O)NCCCOC)CC2=O)cc1 (configuration not stated)	1.77
99	Cc1cccc(N2C(N)=NC(N)=NC23CCCCC3)c1	0.88
100	CC(=O)Nc1ccc(NC(=O)C2C3C=CC(C3)C2C(=O)O)cc1 (configuration not stated)	-0.24
101	Cc1cc2c(c(C)c1Cl)CN(Cc1ccc(Cl)cc1)CO2	0.4
102	CCOC(=O)C(C)Oc1ccc2c(=O)c(Oc3ccc(OC)cc3)coc2c1 (configuration not stated)	-0.91
103	Cc1cc(C(=O)NCc2ccc(Cl)cc2)no1	0.45
104	CCN(C(=O)Cn1ncc2c(=O)oc3ccccc3c21)c1cc(OC)ccc1OC	0.56
105	Cc1cc(C)nc(NS(=O)(=O)c2ccc(NC(=O)c3ccc(S(=O)(=O)N4CCOCC4)cc3)cc2)n1	-0.61
106	CCOC(=O)c1c(-c2ccccc2)csc1NC(=O)C(C)Oc1ccc(F)cc1 (configuration not stated)	-1.1
107	Cc1ccc2nc(-c3cccc([N+](=O)[O-])c3)oc(=O)c2c1	0.34
108	O=C(COC(=O)c1ccc2c3c1C1C=CCC1CN3CC1CC=CC21)c1ccc([N+](=O)[O-])cc1 (configuration not stated)	2.73
109	COCCNC(=O)c1cc2cc3cc(OC)ccc3nc2s1	-0.77
110	Cc1ccc(Cl)cc1N(CC(=O)Nc1c(C)n(C)n(-c2ccccc2)c1=O)S(C)(=O)=O	0.07
111	CCN(c1ccccc1)S(=O)(=O)c1cnc[nH]1	-0.88
112	CCSc1oc(-c2ccco2)nc1S(=O)(=O)c1ccc(F)cc1	-1.05
113	COCCOC(=O)C1=C(N)OC2=C(C(=O)CC(C)(C)C2)C1c1ccccc1[N+](=O)[O-] (configuration not stated)	-0.39
114	CCn1c(=O)[nH]c2ccc3c(c21)C(=O)c1ccccc1C3=O	0.1
115	COc1ccc(-c2cc(C(=O)Nc3c(C)n(C)n(-c4ccccc4)c3=O)c3ccccc3n2)cc1	-0.6
116	COc1cc(C(=S)N2CCOCC2)cc(OC)c1OC(=O)c1ccccc1Cl	0.21
117	O=c1oc2ccccc2c(NC2CCCC2)c1[N+](=O)[O-]	1.05
118	Cc1ccc(S(=O)(=O)NC2CCSC2=O)cc1 (configuration not stated)	-0.66
119	COC(=O)c1c[nH]n2c(NC3CCCCC3)c(-c3cccs3)nc12	-0.69
120	CC(=O)Nc1nc2ccc(N)cc2s1	1.42
121	O=C(O)c1cccc(N2C(=O)c3ccc(Oc4cccc([N+](=O)[O-])c4)cc3C2=O)c1	1.2
122	O=C(OCCCN1C(=O)c2cccc3c(N4CCCCC4)ccc(c23)C1=O)c1ccccc1[N+](=O)[O-]	2.13

# Not a retest: entries from further up.
nr	Molecule	Measles inh
91	CCOc1ccc(NC(=O)c2cc3c(-c4cccc(OC)c4)nn(C)c3s2)cc1	-0.4
92	Cc1nc2nc(SCC(=O)NC3CCCCC3)nn2c(C)c1Cc1cccc(Cl)c1	-0.4
93	CCCNC(=O)c1cc(-c2ccc(OC)c(OC)c2)on1	-1.06
94	COc1ccc(NC(=O)CN2C(=O)C3C4CCC(C4)C3C2=O)cc1 (configuration not stated)	0.52
95	CCN(CC)S(=O)(=O)c1ccc(C(=O)Nc2nc3ccc4sc(C)nc4c3s2)cc1	-0.65
96	COc1ccc(C2CC(c3ccccc3)n3ncnc3N2)cc1 (configuration not stated)	-1.84

# Source: PubChem (Emory University Molecular Libraries Screening Center)
